Rce1 inh: inhibitors of yeast Ras-converting enzyme. 0.27% of 290,000 active. yeast membranes, quenched prenylated peptide cleavage fluorescence. calls only. Q03530. AID 2563;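 active = fall in fluorescence gain of 50% or more versus controls, with final raw signal at or below 3038400; inconclusive = same 50% fall but final raw signal above 3038400; inactive = fall in fluorescence gain under 50%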;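 note: plate controls were neutral control wells for no effect and wells lacking membranes for full effect; tested at 10 µM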
Target sequence (Q03530 whole entry, looked up): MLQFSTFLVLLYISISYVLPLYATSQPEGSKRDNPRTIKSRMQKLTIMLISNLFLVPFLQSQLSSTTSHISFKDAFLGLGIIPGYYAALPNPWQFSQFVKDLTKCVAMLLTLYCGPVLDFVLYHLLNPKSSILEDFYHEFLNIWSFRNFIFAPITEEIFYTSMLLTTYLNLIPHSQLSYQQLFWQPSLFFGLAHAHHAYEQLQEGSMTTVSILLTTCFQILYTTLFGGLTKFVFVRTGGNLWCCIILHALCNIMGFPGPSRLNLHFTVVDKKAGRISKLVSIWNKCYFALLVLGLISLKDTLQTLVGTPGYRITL
MT1-MMP act inh: blocks activation of human MT1-MMP. P50281. HT1080 RFP-PRO-GFP cells, GFP/RFP ratio fluorescence, overnight; percent of plate control window, DMSO zero. GFP/RFP ratio change, % at 20 µM. 0.061% of 360,000 active;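 active = GFP/RFP ratio change of at least 30% with cell ATP level not reduced by more than half and red fluorescence within 50% of control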; note: strong numbers were not always called active
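Test system: HT1080 cells expressing an RFP-PRO-GFP fluorescent reporter construct / Compound dosing: single-point 20 µM compound, 1% DMSO / Schedule: cells overnight before dosing, compound overnight, 37 °C, 5% CO2 / Evaluation: GFP/RFP fluorescence ratio / Control set: DMSO and RFP-L50D-GFP cell wells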
CSC inhib: cancer stem cell inhibition; cancer stem cell-like cells viability, luminescence; inhibition, % at 7.5 µM; 1.1% of 300,000 active;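 active = mean at 75% or more and at least half the replicates too; inconclusive = mean and replicates disagree; tested in HMLE shEcad cells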;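 note: 0% = median of negative and 100% = median of positive control wells; the first replicate is given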
eIF4H inh: inhibitors of RNA binding by human eIF4H. 0.94% of 290,000 active. AID 2012. eIF4H fluorescence polarization binding assay. inhibition, % at 35 µM;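 active = 50% or more with normal probe brightness, or confirmed in later tests; inconclusive = above 50% with abnormal brightness, or retests that disagree; inactive = below 50% or failed in later tests; about a fifth of its hits are not listed in these tables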;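 note: calls also rest on retests at 20 µM and on dose response follow-up; 0% = protein and probe with vehicle and 100% = probe without protein; strong numbers were not always called active; many hits fall short of the cut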
Env fusion inh: blocks HIV Env-driven cell-cell fusion; HeLa-JRFL Env/CEM21 cell fusion, luciferase; inhibition, % at 12.3 µM; 1.1% of 360,000 active; AID 651610;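 active = mean replicate inhibition score of at least 50 and every replicate individually at or above 50; inconclusive = only one of the two criteria met; inactive = mean below 50 and not all replicates reaching 50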;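 note: 0% = plate neutral controls and 100% = maraviroc near 300 nM; one replicate is shown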
PABP polyA inh: blocks human PABP binding to poly(A) RNA | P11940 | fluorescence polarization | inhibition, % at 35 µM | 1% of 290,000 active | AID 2014;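 active = 50% or more with normal probe brightness, or confirmed in later tests; inconclusive = above 50% with abnormal brightness, or retests that disagree; inactive = below 50% or failed in later tests; about a fifth of its hits are not listed in these tables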;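 note: calls also rest on retests at 20 µM and on dose response follow-up; controls were probe without protein and protein plus probe with vehicle; some compounds called inactive have numbers as strong as hits; many hits fall short of the cut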
UUG fidelity: modulators of start codon recognition fidelity in yeast. AID 602363. activity score, % at 18.7 µM. S. cerevisiae UUG-firefly luciferase reporter, luminescence/redox ratio. 0.13% of 350,000 active;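 active = replicate mean at a twofold rise or more, about +100% in these data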;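 note: firefly luciferase made from a UUG start codon reports start codon fidelity; reporter light over untreated wells divided by growth signal over untreated wells; some hits fall short of that in this replicate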
MT1-MMP act inh RFP: also measured in MT1-MMP act inh; calls as there; RFP signal change, %; measured here: RFP expression control read;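 0 = vehicle wells; hits needed this value within 50% of zero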
An asterisk follows results filed as active; i = inactive; ? = inconclusive; / = not tested or not shown. This is a subset (hit frequency here may not be typical).

No.	SMILES	Rce1 inh	MT1-MMP act inh	MT1-MMP act inh RFP	CSC inhib
1	COC(=O)CNC(=O)c1nn(-c2cccc(OC)c2)c(=O)c2ccccc12	/	3	3	-12
2	CCn1ccc(=O)c2cc3c(cc21)OCO3	i	0	2	-3
3	COc1ccc2oc(C(=O)OC(C)C(=O)NC3(C#N)CCCCC3)c(C)c2c1 (centres undefined)	i	0	-2	/
4	CCNCc1ccc(OCc2ccccc2F)c(OC)c1	/	-1	2	6
5	CC1(C)CC(=O)c2cc(OCC(=O)NCc3cccnc3)ccc2O1	i	3	0	-14
6	Cc1cccc2nc(CSc3nc4ccccc4[nH]3)cn12	i	3	0	4
7	CC(C)(C)c1ccc(-c2cc(C(=O)NNC(=O)Nc3ccccc3)c3ccccc3n2)cc1	i	-5	-6	5
8	CCc1cccc(NC(=O)Cc2cn(C)c3ccccc23)c1	i	1	0	5
9	CCn1cnc2c1c(=O)n(CC(=O)NN)c(=O)n2Cc1ccccc1	i	2	-3	-7
10	CC(=O)NC(Nc1c(C)n(C)n(-c2ccccc2)c1=O)C(Cl)(Cl)Cl (centres undefined)	i	-1	3	-10
11	COC(=O)Cc1sc(-c2ccccn2)nc1-c1ccccc1	i	-2	0	-6
12	CC1=Nc2ccccc2/C1=C/c1sc(=N)n(-c2nccs2)c1O	i	-150	-5	111*
13	Cc1ccccc1NC(=O)COC(=O)C1=COCCO1	/	4	3	-3
14	C=CCNC(=S)NN=C1CCC(c2ccccc2)CC1 (centres undefined)	i	-1	1	-16
15	CC1(C)C2CCC(C2)C1(C)N=C1OC(CCl)CS1 (centres undefined)	i	0	0	-21

No.	eIF4H inh	Env fusion inh	PABP polyA inh	UUG fidelity
1	-12	/	-2	5
2	/	3	/	-6
3	/	-4	/	0
4	-2	-1	42	/
5	2	/	7	-15
6	13	-120	9	/
7	0	i	1	-20
8	-3	-64	-7	-9
9	-8	3	-3	14
10	5	3	1	/
11	2	-33	2	-19
12	?	/	?	-18
13	/	/	/	-16
14	-9	-2	3	-17
15	2	29	-5	-13

Rewritten as labelled records: two of the compounds above
9: CCn1cnc2c1c(=O)n(CC(=O)NN)c(=O)n2Cc1ccccc1
  Rce1 inh = i; MT1-MMP act inh = 2; MT1-MMP act inh RFP = -3; CSC inhib = -7; eIF4H inh = -8; Env fusion inh = 3; PABP polyA inh = -3; UUG fidelity = 14

10: CC(=O)NC(Nc1c(C)n(C)n(-c2ccccc2)c1=O)C(Cl)(Cl)Cl (centres undefined)
  Rce1 inh = i; MT1-MMP act inh = -1; MT1-MMP act inh RFP = 3; CSC inhib = -10; eIF4H inh = 5; Env fusion inh = 3; PABP polyA inh = 1; UUG fidelity = /

Next section
No.	SMILES	Rce1 inh	MT1-MMP act inh	MT1-MMP act inh RFP	CSC inhib
16	COc1ccc(-n2ncc3c2CC(C)(C)CC3NC(=O)c2c(C)cc(=O)oc2C)cc1 (centres undefined)	i	-5	0	-7
17	CCOC(=O)COc1ccccc1C(=O)c1cnn(-c2ccccc2)c1	i	0	1	7
18	CCOC(=O)N1CCN(S(=O)(=O)c2cc([N+](=O)[O-])c(C)cc2C)CC1	i	-5	1	2
19	CCc1ccc(C(=O)NNc2ccc(S(N)(=O)=O)cc2)cc1	i	0	3	-1
20	O=C(O)CCCC(=O)Nc1cccc2cccnc12	i	0	2	2
21	O=C(CN(Cc1ccco1)C(=O)CNS(=O)(=O)c1ccc(Cl)cc1)NCc1ccc(F)cc1	i	-1	0	-12
22	C=CCn1c(SCC(=O)c2[nH]c(C)c(C(=O)OC)c2C)nc2scc(-c3ccc(OC)c(OC)c3)c2c1=O	i	-37	-36	43
23	CC(C)(O)C#Cc1ccc(CN2CCN(Cc3ccsc3)C(CCO)C2)s1 (centres undefined)	i	0	0	13
24	O=C(O)C(S)C(S)C(=O)O (centres undefined)	i	2	2	-4
25	CN1CCN(C(=O)c2ccc(Cn3cc(Cl)cn3)o2)CC1	i	3	3	-1
26	O=C(COC(=O)c1n[nH]c(=O)c2ccccc12)NCc1ccccc1	/	-1	-1	/
27	Cc1ccsc1C(=O)NC(C)c1ccc2c(c1)OCO2 (centres undefined)	i	-2	2	-18
28	NC(=O)C1CCCN(C(=O)c2cccc(S(=O)(=O)N3CCCCCC3)c2)C1 (centres undefined)	/	-3	2	/
29	CN(CC(=O)Nc1ccccc1C(F)(F)F)C(=O)CSc1nc(N)cc(N)n1	/	-2	-1	-15
30	c1ccc(C[n+]2csc3ccccc32)cc1	i	2	3	-8

No.	eIF4H inh	Env fusion inh	PABP polyA inh	UUG fidelity
16	-2	-11	12	-14
17	-3	-24	-5	-15
18	-7	-12	-3	-10
19	-10	-9	0	1
20	-5	-19	5	-9
21	/	/	/	-17
22	-10	2	33	/
23	-9	23	-3	-7
24	/	/	/	-11
25	-3	-1	-2	-20
26	/	22	/	-16
27	10	-14	-8	-15
28	/	0	/	-6
29	/	-6	/	-16
30	-12	/	10	-18

Additional compounds follow.
No.	SMILES	Rce1 inh	MT1-MMP act inh	MT1-MMP act inh RFP	CSC inhib
31	COc1cccc(C2c3c(oc4ccc(F)cc4c3=O)C(=O)N2CCCN2CCOCC2)c1 (centres undefined)	i	-1	4	-12
32	C(=N\N=C\c1cccs1)/c1cccs1	i	-6	-1	-3
33	S=c1[nH]nc(-c2ccco2)n1/N=C/c1ccc(Br)s1	i	1	2	1
34	COCCN(CCOC)C(=O)N1CCOCC1	i	0	3	-11
35	COc1ccc2oc(C(=O)OCC(=O)NC3CCCC3)c(C)c2c1	i	1	-2	-8
36	CCCCc1ccc(NC(=O)COCC)cc1	i	-1	-3	1
37	COCCNc1nc2cc(-c3ccccc3C)sc2c(=O)n1C	/	8	3	/
38	COCCCNC(=O)c1sc2ncnc(N3CCc4ccccc4C3)c2c1C	i	4	-4	9
39	O=C(Cn1ncc(N2CCCC2)c(Br)c1=O)c1ccc(Cl)cc1	i	3	4	-3
40	O=C(Cc1cccs1)NNC(=S)NC(=O)c1ccco1	i	3	6	-6
41	O=C(NNC(=O)C1CCN(C(=O)Nc2ccccc2)CC1)c1ccc(F)cc1	/	0	1	-7
42	COc1ccccc1OCC(=O)Nc1ccccc1C(=O)N1CCCC1	i	2	3	-1
43	CN(C)S(=O)(=O)c1ccc(N2CCCC2)c(C(=O)Nc2nc(-c3cc(F)ccc3F)cs2)c1	i	-8	-6	23
44	CCOC=C1C(=O)N(C(C)=O)c2cc(OC)c(OC)cc21	/	2	3	/
45	Cc1ccc(C(c2cc(Cl)c3cccnc3c2O)N2CCN(C)CC2)cc1 (centres undefined)	i	-2	1	115*

No.	eIF4H inh	Env fusion inh	PABP polyA inh	UUG fidelity
31	-14	-6	2	-11
32	2	-44	3	/
33	-2	-78	-12	-27
34	-2	10	5	/
35	2	9	-6	-17
36	-4	/	8	-15
37	/	5	/	1
38	2	78*	4	-6
39	-2	-52	-3	/
40	22	17	22	/
41	/	/	/	-3
42	-3	1	6	-11
43	-1	7	-1	-5
44	/	2	/	-13
45	30	/	26	-56

Quoted from the listing.
Entry of entry 37 in MT1-MMP act inh RFP: 3
Entry of entry 39 in CSC inhib: -3

Later entries
No.	SMILES	Rce1 inh	MT1-MMP act inh	MT1-MMP act inh RFP	CSC inhib
46	CCOc1ccc(NC(=O)c2c[nH]n3c(=O)cc(C4CCN(C(=O)OC(C)(C)C)CC4)nc23)cc1	i	3	-3	4
47	COC(=O)c1ccccc1NC(=S)NC(=O)CC(C)C	/	-4	1	/
48	CC(=O)c1ccc(N2CCc3ccccc3C2)c([N+](=O)[O-])c1	i	-2	0	25
49	CCc1nc2c(OCC3COc4ccccc4O3)cccn2c1N(C)C(=O)c1ccccc1F (centres undefined)	/	-2	-3	/
50	Cc1cc2ncc(-c3ncc(C(F)(F)F)cc3Cl)cn2n1	i	0	-3	3
51	CN(c1ccccc1)S(=O)(=O)c1cc(C(=O)Nc2ccccc2N2CCOCC2)ccc1Cl	/	-1	-17	/
52	O=C(O)C1CCCN1C(=O)c1cncc(Br)c1 (centres undefined)	i	-3	-2	5
53	Cc1cc(C)c(C)c(S(=O)(=O)NC(C)C(=O)O)c1C (centres undefined)	i	0	6	-8
54	O=C(O)CCc1ccccc1OC(=O)c1ccccc1	i	-2	-3	-19
55	O=C(NCCCn1ccnc1)c1cc(-c2cccc(O)c2)on1	i	3	6	-7
56	CN(CC1CCCO1)S(=O)(=O)c1ccc(C(=O)Nc2nc(-c3ccccn3)cs2)cc1 (centres undefined)	/	8	-26	70
57	Cc1cc(C)nc(NC(=O)CCCC(=O)O)c1	i	4	6	/
58	Cc1ccccc1NC(=O)c1ocnc1C	i	-1	1	-4
59	O=C(Nc1cccc(Br)c1)/C(=C\c1cccnc1)NC(=O)c1ccco1	i	0	0	-13
60	COc1ccc(NC(=O)c2cccnc2)c(OC)c1	i	5	4	/

No.	eIF4H inh	Env fusion inh	PABP polyA inh	UUG fidelity
46	12	-1	11	-6
47	1	-58	-5	-15
48	2	-16	-3	3
49	/	7	/	-6
50	-15	/	2	-58
51	/	17	/	-17
52	0	/	16	-13
53	-4	-18	-4	-12
54	-4	-8	4	-10
55	-7	-16	-3	/
56	15	/	-7	-40
57	-14	/	-11	/
58	-1	24	6	-17
59	-12	-10	6	-4
60	-6	-80	-7	6

Going on with the list.
No.	SMILES	Rce1 inh	MT1-MMP act inh	MT1-MMP act inh RFP	CSC inhib
61	C[C@@H]1O[C@@H](OC[C@H]2O[C@@H](Oc3cc(O)c4c(=O)cc(-c5ccc(O)c(O)c5)oc4c3)[C@H](O)[C@@H](O)[C@@H]2O)[C@H](O)[C@H](O)[C@H]1O	/	9	3	8
62	FC(F)(F)c1cc(C(F)(F)F)c2ccc(N3CCN(c4ncccn4)CC3)nc2n1	i	-1	-2	1
63	COc1cc(/C=N/NC(=O)c2nnn(-c3nonc3N)c2C(C)C)ccc1OCc1ccc(F)cc1	i	-6	-27	-3
64	CNc1nc(N)nc(-c2cc(Cl)ccc2OC)n1	i	2	-2	-21
65	CCOC(=O)c1sc(N(C)C)nc1-c1ccccc1	i	-15	-3	12
66	CCCCN(C)S(=O)(=O)c1c(C)[nH]c(=O)[nH]c1=O	i	0	-2	-9

No.	eIF4H inh	Env fusion inh	PABP polyA inh	UUG fidelity
61	/	/	/	-18
62	1	/	12	-13
63	-11	-4	-10	-25
64	3	-2	10	-11
65	-4	/	-5	-32
66	-7	/	-8	-12

Some entries already given, reduced to eIF4H inh:
| No. | SMILES | eIF4H inh |
| --- | --- | --- |
| 25 | CN1CCN(C(=O)c2ccc(Cn3cc(Cl)cn3)o2)CC1 | -3 |
| 64 | CNc1nc(N)nc(-c2cc(Cl)ccc2OC)n1 | 3 |
| 39 | O=C(Cn1ncc(N2CCCC2)c(Br)c1=O)c1ccc(Cl)cc1 | -2 |
